Source: PubChem (several laboratories)
HNF4A DNA FP = change in binding of human HNF4 alpha to DNA | activity change, % at 10 µM | P41235 | actives 0.3% (n = 360,000) | HNF4a-FITC DNA binding, fluorescence polarization, 1 h | AID 1224865; in the data active = activity change above about 30%, passing the limit was not always enough;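 also: controls were the assay level and a saturating level of protein; the project sought stronger binding though the title names inhibitors; some compounds called inactive have numbers as strong as hits; positive values seem to mean higher polarization but the record does not say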
ALR H2O2 inh = blocks human ALR sulfhydryl oxidase activity; P55789; purified ALR, DTT oxidation, H2O2 HRP-luminol luminescence; inhibition, % (concentration not given with the values); actives 3.8% (n = 290,000);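 active = mean and each replicate at 75% or more; inconclusive = only one of the two met; inactive = neither met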;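 also: stock transfer was 7.5 nL into about 7.5 µL; 0% = neutral wells and 100% = wells with inactivated enzyme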
Target sequence (P55789 whole entry, looked up): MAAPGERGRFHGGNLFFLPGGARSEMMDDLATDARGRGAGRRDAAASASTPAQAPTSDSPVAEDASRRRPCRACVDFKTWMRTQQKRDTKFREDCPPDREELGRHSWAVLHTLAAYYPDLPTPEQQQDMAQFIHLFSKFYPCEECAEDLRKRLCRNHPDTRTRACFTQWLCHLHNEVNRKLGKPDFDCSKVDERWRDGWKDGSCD
E coli growth = blocks Escherichia coli growth. actives 0.21% (n = 330,000). OD600 absorbance (test concentration not listed). OD600, 23 h; active compounds read low. AID 1053175;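 active = OD600 absorbance below the run mean of sample wells minus 3.6 SD, in any replicate, cut at about 0.56 in these data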;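 also: stock transfer was 300 nL into about 60 µL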
AF4-AF9 inh = MLL-AF4/AF9 protein interaction inhibition | actives 0.47% (n = 350,000) | AID 651704 | P42568 | AlphaScreen, biotin-AF4 peptide binding to FLAG-AF9 | inhibition, % at 10 µM;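 active = every replicate reaching a set inhibition limit, whatever the replicate mean, cut at about 25% in these data; inconclusive = mean inhibition reaches that limit but some replicates miss it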;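 also: 0% = plate neutral control median and 100% = total signal loss; the record names both 10 and 1 µM as test concentration; the first replicate is given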
Target sequence (P42568 whole entry, looked up): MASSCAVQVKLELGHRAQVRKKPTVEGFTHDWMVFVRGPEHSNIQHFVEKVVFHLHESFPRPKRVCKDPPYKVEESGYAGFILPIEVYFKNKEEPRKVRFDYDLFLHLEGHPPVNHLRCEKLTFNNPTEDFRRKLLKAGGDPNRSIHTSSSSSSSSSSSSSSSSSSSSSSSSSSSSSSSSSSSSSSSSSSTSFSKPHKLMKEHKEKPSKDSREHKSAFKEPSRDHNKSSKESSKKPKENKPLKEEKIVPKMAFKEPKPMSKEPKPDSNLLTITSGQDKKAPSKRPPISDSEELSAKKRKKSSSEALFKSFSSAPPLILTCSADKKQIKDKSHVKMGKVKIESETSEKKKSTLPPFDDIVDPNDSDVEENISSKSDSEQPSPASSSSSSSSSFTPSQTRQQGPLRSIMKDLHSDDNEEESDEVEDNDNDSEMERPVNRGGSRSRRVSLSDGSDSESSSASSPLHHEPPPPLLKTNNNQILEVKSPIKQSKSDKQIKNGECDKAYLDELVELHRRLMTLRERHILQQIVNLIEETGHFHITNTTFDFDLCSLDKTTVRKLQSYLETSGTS
Ecoli rRNA inh = inhibits bacterial ribosomal RNA function over humanized ribosomes. E. coli WT GFP vs humanized-ribosome RFP mutants, fluorescence, 24 h; active compounds read low; DMSO median 0, no signal -100. GFP signal change (wild-type ribosome), % (concentration not given with the values). actives 1.6% (n = 350,000). AID 720706;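 active = significant combined selectivity score with lowered wild-type GFP, culture density cut under 30%, mutant RFP and density less affected; inactive = any of these conditions unmet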; also: one replicate is shown; some compounds called inactive have numbers as strong as hits
FGF22 binding = shifts melting point of recombinant human FGF22; Q9HCT0; actives 1.5% (n = 340,000); recombinant FGF22 thermal shift, SYPRO orange fluorescence; percent of sucrose octasulfate shift, DMSO zero; calls only at 9.99 µM;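 active = melting point raised past a set limit in the mean and every replicate; inconclusive = no clear call; three in four hits are not shown here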
Target sequence (Q9HCT0 whole entry, looked up): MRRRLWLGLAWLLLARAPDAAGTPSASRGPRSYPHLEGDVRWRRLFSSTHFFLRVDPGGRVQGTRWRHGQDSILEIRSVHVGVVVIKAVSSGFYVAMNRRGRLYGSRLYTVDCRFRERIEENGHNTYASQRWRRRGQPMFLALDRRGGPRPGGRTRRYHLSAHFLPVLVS
Vif A3G = HIV-1 Vif–A3G interaction blockers – biochemical, TR-FRET, GST-Vif 1-94, biotin-A3G peptide, dose response retest, primary screen (AID 1117319); TR-FRET GST-Vif / biotin-A3G peptide binding; higher % means a stronger effect; test concentration not given here; strong numbers were not always called active; inhibition, %; hits with a dose series show IC50 in µM; actives 0.57% (n = 260,000);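 active = above the screen mean plus three standard deviations and confirmed in dose response; inconclusive = results disagree or hit not tested in dose response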;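 also: Vif residues 1-94 fused to GST binding biotinylated APOBEC3G peptide 110-148; 0% = full assay without inhibitor and 100% = GST in place of GST-Vif; retest series ran down from 100 µM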
Ecoli rRNA inh OD600 = also measured in Ecoli rRNA inh; calls as there; OD600 change, %; measured here: OD600 growth;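 optical density of the mix in the first replicate; 0 = DMSO median and -100 = no signal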
Ecoli rRNA inh RFP = further read-out of Ecoli rRNA inh, marked with its call; RFP signal change, %; measured here: RFP humanized mutant strains;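 first replicate; 0 = DMSO median and -100 = no signal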
* marks the source's active call; other numbers are inactive results; i = inactive; ? = inconclusive; / = no result given. Only part of the results is shown (hit frequency here may not be typical).

SMILES	HNF4A DNA FP	ALR H2O2 inh	E coli growth	AF4-AF9 inh	Ecoli rRNA inh	Ecoli rRNA inh OD600	Ecoli rRNA inh RFP	FGF22 binding	Vif A3G
Cc1ccccc1C(=O)Nc1ccccc1NC(=O)c1ccccc1C	0.2	0	0.67	0.7	-10	-1	-1.6	i	-2%
COc1ccc2c(c1OC)C(=O)OC2CC(=O)c1ccc(O)c(O)c1 (centres undefined)	-1.4	99*	0.72	/	/	/	/	/	>100µM*
CCN(Cc1ccccc1)C(=O)COC(=O)CNS(=O)(=O)c1ccc(C)cc1	0.6	-5	0.72	/	/	/	/	/	/
CCNC(=S)N/N=C(\C)c1ccc(N2CCOCC2)cc1	1.3	57	/	0.8	8	4	-0.6	i	/
CO[C@H]1CC[C@H]2CCOc3ccc(C#N)cc3C(=O)N(C)C[C@@H](c3ccccc3)CC(=O)N(C)C[C@@H]1O2	/	/	/	0.2	-3	4	-2.0	i	/
CCOC(=O)[C@]12CCC=C1N(Cc1ccco1)C(=O)[C@H](CC(=O)N1CCCCC1)C2	-1.6	/	/	-1.1	7	8	-3.1	i	/
CN(C)c1ccc(P(=O)(CC(=O)N/N=C/c2ccc(C#N)cc2)OCCCl)cc1 (centres undefined)	0.9	-8	/	0.8	-16	-8	-0.2	i	-8%
COc1ccc(-n2c(Cc3cccn3C)nnc2SCC(=O)Nc2nc(C)cs2)cc1	0.5	30	0.73	-0.7	3	3	2.0	i	8%
Clc1ccc(-c2nnc3n2CCCC3)cc1Cl	-2.2	4	0.69	/	/	/	/	/	-5%
Cn1c(NCc2ccccc2F)nc2cc(-c3ccccc3)sc2c1=O	5.5	/	/	2.7	22	17	2.3	i	/
CC(C)(C)OC(=O)N1Cc2ccccc2C[C@H]1C(=O)O	1.4	-26	0.75	/	/	/	/	/	3%
COc1ccc(-c2ccc(SCC(=O)N3CCOCC3)nn2)cc1OC	2.2	-11	0.76	/	/	/	/	/	3%
CCNC(=S)N1CC(C)OC(C)C1 (centres undefined)	-0.3	-5	0.72	/	/	/	/	/	0%
O=C(NC1CCCC1)C(c1ccccn1)N(Cc1ccc(F)cc1)C(=O)c1csnn1 (centres undefined)	-0.1	-11	0.63	1.6	7	2	-0.8	i	-4%
CC(C)OC(=O)c1c(NC(=O)c2cccs2)sc2c1CCCC2	-4.5	0	0.72	/	/	/	/	/	-2%
Cc1ccc2c(c1)C(O)(C1COC(C)(C)CC1=O)C(=O)N2C (centres undefined)	0.3	/	0.7	-1.1	6	-7	1.8	i	/
Clc1ccccc1-c1nc(-c2ccc(Br)o2)no1	-4.0	-5	0.67	-7.9	-12	-12	-3.8	i	/
C=CCn1cc(-c2ccc(Cl)cc2)cc(C#N)c1=O	1.4	-11	0.68	/	/	/	/	/	24%
CC(C)CCN1C(=O)CCC1(C)C(=O)NC1CCCCCCC1 (centres undefined)	0.7	-16	0.64	2.8	-10	-8	-4.2	i	?
CCCN1C[C@H](C)[C@H](OC)CN(C)C(=O)c2cc(NC(=O)CC(F)(F)F)ccc2OC[C@H]1C	/	/	/	-2.4	3	1	-1.1	i	/
COc1ccccc1C(CNC(=O)c1cccc(NS(=O)(=O)c2ccc(Br)cc2)c1)N(C)C (centres undefined)	-1.1	-3	0.65	4.6	-7	-11	0.9	i	1%
CC1Cc2cc(/C(O)=C3/C(=O)C(=O)N(CCCn4ccnc4)C3c3ccncc3)ccc2O1 (centres undefined)	1.3	-1	0.72	/	/	/	/	/	3%
C=CCNC(=S)NNC(=O)c1ccccc1OCC	-1.7	5	0.7	-3.2	-1	5	-2.5	i	-7%
C[C@H](CO)N1C[C@H](C)[C@@H](CN(C)C(=O)C2CCC2)Oc2cc(C3=CCCCC3)ccc2S1(=O)=O	/	/	/	1.5	-9	-22	6.7	i	/
CCCN1C2=NCCCN2c2ccccc21	-0.7	-5	0.69	/	/	/	/	/	4%

(next part)
SMILES	HNF4A DNA FP	ALR H2O2 inh	E coli growth	AF4-AF9 inh	Ecoli rRNA inh	Ecoli rRNA inh OD600	Ecoli rRNA inh RFP	FGF22 binding	Vif A3G
COc1cc2c(cc1OC)CN(CC(=O)Nc1ccc(S(=O)(=O)N3CCCC3)cc1)CC2	-0.5	-12	0.63	1.2	-3	-5	-2.8	i	0%
CCOC(=O)c1sc(NC(=O)/C=C/c2ccc(F)cc2)nc1C	3.6	-1	0.72	0.7	15	12	0.7	i	-1%
CCNC(=O)C[C@@H]1CC[C@@H]2[C@H](COc3ccc(NC(=O)Nc4ccccc4F)cc3C(=O)N2C)O1	/	/	/	-2.6	-3	-1	1.8	i	/
CN1C(=O)c2cc(NC(=O)c3cccc(F)c3)ccc2OC[C@@H]2O[C@H](CC(=O)NCC3CC3)CC[C@H]21	/	/	/	-2.4	-2	-3	-0.3	i	/
O=C(C[C@H]1C[C@H]2c3cc(NS(=O)(=O)c4ccc(F)cc4)ccc3O[C@H]2[C@@H](CO)O1)NCc1ccncc1	/	/	/	0.6	2	-2	-2.8	i	/
CCCNC(=O)C[C@@H]1CC[C@@H]2[C@H](COc3ccc(NC(=O)c4cc(C)on4)cc3C(=O)N2C)O1	/	/	/	-15	3	7	-1.7	i	/
CN(C[C@@H]1N[C@H](CO)[C@@H]1c1ccc(-c2cccc(F)c2)cc1)S(C)(=O)=O	/	/	/	1.1	0	3	-1.2	i	/
C[C@H](CO)N1C[C@H](C)[C@@H](CN(C)Cc2ccccn2)Oc2cc(C3=CCCC3)ccc2S1(=O)=O	/	/	/	1.0	-30	-56	21	i	/
COc1ccc2c3c(n(C)c2c1)[C@H](CO)N(C(=O)CN1CCOCC1)CC31CN(C(=O)Nc2cccc(F)c2)C1	/	/	/	0.1	2	-2	-0.4	i	/
CCCCc1c(O)nc(SCCN(C)C)n(-c2ccccc2)c1=O	0.5	10	0.72	/	/	/	/	/	-3%
O=C(O)C1C2C=CC(C2)C1C(=O)NC(c1ccccc1)c1ccccc1 (centres undefined)	-2.0	5	0.66	/	/	/	/	/	-4%
Cc1ccccc1NC(=O)CCCn1nc(C)c2c(C)n(-c3ccccc3)nc2c1=O	6.0	0	0.71	0.3	5	14	-3.2	i	/
CC(=O)OC(C)(C)/C=C/C(=O)[C@](C)(O)C1[C@H](O)C[C@@]2(C)C3CC=C4C(C=C(O[C@@H]5O[C@H](CO)[C@@H](O)[C@H](O)[C@H]5O)C(=O)C4(C)C)[C@]3(C)C(=O)C[C@]12C (some centres undefined)	-1.9	-11	/	3.8	11	10	6.5	i	/
COc1cccc(S(=O)(=O)N(C)C[C@@H]2Oc3cc(C#CCC(C)C)ccc3S(=O)(=O)N([C@@H](C)CO)C[C@H]2C)c1	/	/	/	-0.9	4	3	-0.4	i	/
O=C1c2ccccc2S(=O)(=O)N1CC(O)COc1ccc(Cl)cc1 (centres undefined)	-5.2	-6	0.71	/	/	/	/	/	27%
O=C(Cc1ccccc1)Nc1ccc(NC(=O)C2CC2)nc1	0.8	4	0.69	/	/	/	/	/	6%
CCS(=O)(=O)N1CCN(c2ccc(Cl)cc2[N+](=O)[O-])CC1	2.8	-4	0.66	/	/	/	/	/	3%
CCCS(=O)(=O)NC(=O)C1(C)CCCN(C(=O)c2cccc(Cl)c2)C1 (centres undefined)	2.1	/	/	-2.2	4	3	-0.5	i	/
C[C@H](CO)N1C[C@H](C)[C@H](CN(C)C(=O)c2cccnc2)Oc2ncc(/C=C/c3ccccc3)cc2C1=O	/	/	/	0.4	5	31	0.7	i	/
COc1cc(C(=O)NNC(=O)NC2CCCCC2)cc(OC)c1OC	-0.3	25	0.7	/	-1	8	-2.2	/	12%
COc1ccccc1Cc1c(C2CCCCC2)nc2c3ccccc3ccn12	0.1	/	/	-4.8	13	11	31	i	/
CCCNC(=O)N(C)C[C@@H]1Oc2cc(-c3ccncc3)ccc2S(=O)(=O)N([C@H](C)CO)C[C@H]1C	/	/	/	-3.4	0	2	-2.3	i	/
O=C(CNC(=O)c1cc2ccccc2o1)NCc1cccs1	-0.9	4	0.72	/	/	/	/	/	15%
COc1ccccc1/C=C/C(=O)NCC(=O)N/N=C(\CCC(=O)O)c1ccccc1	-1.5	0	/	-0.7	8	2	-0.3	i	-6%
COc1cc(C(=O)Nc2cccc(-c3cn4cccnc4n3)c2)cc(OC)c1OC	0.7	-2	0.69	0.7	-13	6	2.5	i	0%

Entries of single compounds as entered above. Values in the order: HNF4A DNA FP, ALR H2O2 inh, E coli growth, AF4-AF9 inh, Ecoli rRNA inh, Ecoli rRNA inh OD600, Ecoli rRNA inh RFP, FGF22 binding, Vif A3G
O=C(CNC(=O)c1cc2ccccc2o1)NCc1cccs1 across the screens: -0.9, 4, 0.72, /, /, /, /, /, 15%
CCCCc1c(O)nc(SCCN(C)C)n(-c2ccccc2)c1=O across the screens: 0.5, 10, 0.72, /, /, /, /, /, -3%
COc1cc(C(=O)Nc2cccc(-c3cn4cccnc4n3)c2)cc(OC)c1OC across the screens: 0.7, -2, 0.69, 0.7, -13, 6, 2.5, i, 0%
CCCNC(=O)C[C@@H]1CC[C@@H]2[C@H](COc3ccc(NC(=O)c4cc(C)on4)cc3C(=O)N2C)O1 across the screens: /, /, /, -15, 3, 7, -1.7, i, /
C[C@H](CO)N1C[C@H](C)[C@@H](CN(C)Cc2ccccn2)Oc2cc(C3=CCCC3)ccc2S1(=O)=O across the screens: /, /, /, 1.0, -30, -56, 21, i, /

(more compounds)
SMILES	HNF4A DNA FP	ALR H2O2 inh	E coli growth	AF4-AF9 inh	Ecoli rRNA inh	Ecoli rRNA inh OD600	Ecoli rRNA inh RFP	FGF22 binding	Vif A3G
O=C(C1CCCO1)N1CCC(c2nc3ccccc3[nH]2)CC1 (centres undefined)	-3.5	-18	0.68	2.8	8	12	-7.0	i	71%
CC1(C)Cc2c(sc3nc[nH]c(=O)c23)CO1	-3.8	5	0.67	2.8	17	14	4.1	i	-7%
COc1cccc(S(=O)(=O)N2C[C@@H](O)COC[C@H]3O[C@H](CC(=O)NCCCN4CCOCC4)CC[C@@H]32)c1	/	/	/	1.1	3	8	0.1	i	/
COc1ccc2c(c1)c(=O)c(C(=O)c1ccc(F)cc1)cn2CC(=O)Nc1ccc(F)cc1	-1.4	-15	0.73	?	6	0	-0.9	i	-6%
CCNC(=O)C[C@H]1CC[C@H]2[C@H](COc3ccc(NC(=O)c4ccccc4)cc3C(=O)N2C)O1	/	/	/	-1.2	0	8	-1.4	i	/
Cc1cc(C)n(C(=O)c2cc(F)c(F)cc2C)n1	0.4	-3	0.69	0.4	14	15	3.4	i	-7%
S=c1[nH]nc(CSc2nc3ccccc3s2)n1Cc1ccccc1	0.9	-2	0.69	/	/	/	/	/	2%
COc1ccc(CN2CC3(CN(C(=O)C4CC4)C3)c3c(n(C)c4cc(OC)ccc34)[C@@H]2CO)cc1	/	/	/	1.4	-1	-12	1.2	i	/
Cn1c(SCC(=O)Nc2sccc2C(N)=O)nc2ccccc2c1=O	4.1	-4	0.72	-0.6	-7	-1	-5.4	i	-6%
CCN(C(=O)COC(=O)/C=C/c1nc2ccccc2s1)C1CCS(=O)(=O)C1 (centres undefined)	-4.4	95*	0.66	3.3	11	-2	-1.1	i	-2%
Cc1cccnc1N(C(=O)Nc1cccc(Cl)c1)C1=NCC(C)(C)S1	0.5	-2	0.67	1.6	-39	-43	-8.2	i	-1%
NC(=S)Nc1cccc(O)c1	1.5	36	0.68	1.5	5	1	-0.6	i	5%
CCc1ccc(N(C(=O)c2snc(C(N)=O)c2N)C(C(=O)NCC2CCCO2)c2ccco2)cc1 (centres undefined)	-0.2	30	0.66	-11	-3	-24	8.2	i	/
